T cruzi repl – T. cruzi replication inhibition; T. cruzi beta-gal in NIH3T3, luminescence, 90 h; inhibition, % (concentration not given with the values); 1.4% of 300,000 active; AID 1885;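 active = mean inhibition across valid replicates above about 55%, limit read from the data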;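 also: signal also drops with host cell toxicity which is not excluded here; 0% = plate median of DMSO wells and 100% = zero luminescence signal; higher percent means less beta-gal luminescence so fewer parasites; stock transfer was 50 nL into about 50 µL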
FGF22 binding – shifts melting point of recombinant human FGF22; 1.5% of 340,000 active; calls only at 9.99 µM; recombinant FGF22 thermal shift, SYPRO orange fluorescence; percent of sucrose octasulfate shift, DMSO zero; Q9HCT0;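 active = melting point raised past a set limit in the mean and every replicate; three in four hits are not shown here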
rRNA inh HTS – inhibitors of bacterial rRNA selective over humanized ribosomes | 1.6% of 350,000 active | E. coli WT GFP vs humanized-ribosome RFP mutants, fluorescence, 24 h; stronger effect = lower value; DMSO median 0, no signal -100 | GFP signal change (wild-type ribosome), % (test concentration not listed);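 active = significant combined selectivity score with lowered wild-type GFP, culture density cut under 30%, mutant RFP and density less affected; inactive = any of these conditions unmet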; also: one replicate is shown; some compounds called inactive have numbers as strong as hits
UCH37 DUB inh – inhibitors of human deubiquitinating enzyme UCH37. Q9Y5K5. purified proteasome/UCH37, Ub-AMC cleavage fluorescence. inhibition, % (concentration not given with the values). 0.33% of 330,000 active. AID 588478;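 active = mean of two replicates above 20%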;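 also: 0% = compound-free wells with enzyme and 100% = wells lacking proteasome; stock transfer was 100 nL into about 20 µL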
Target sequence (Q9Y5K5 whole entry, looked up): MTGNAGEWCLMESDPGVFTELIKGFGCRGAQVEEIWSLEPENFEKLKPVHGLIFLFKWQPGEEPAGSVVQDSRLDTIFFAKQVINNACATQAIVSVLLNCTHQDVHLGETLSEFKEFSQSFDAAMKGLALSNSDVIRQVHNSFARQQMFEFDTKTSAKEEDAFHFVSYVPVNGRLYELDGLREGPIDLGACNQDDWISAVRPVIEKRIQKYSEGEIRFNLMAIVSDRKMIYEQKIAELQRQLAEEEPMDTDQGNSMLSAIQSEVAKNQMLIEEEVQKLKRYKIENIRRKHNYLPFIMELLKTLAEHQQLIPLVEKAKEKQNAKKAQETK
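Schedule: 30 min plus 25 min, room temperature / Material: human UCH37 within purified proteasomes / Technique: AMC fluorescence intensity at 355/460 nm / Buffer or medium: pH 7.4 Tris-HCl (50 mM) with ovalbumin, ATP-MgCl2, DTT / Controls: wells without proteasome as full block, compound-free enzyme plus substrate as uninhibited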
Bfl-1 A1 inh – inhibitors of the anti-apoptotic protein A1, read as caspase activation; MEF A1-2A-BIM cells, Caspase-Glo 3/7 luminescence, 3 h; percent of clofoctol response, vehicle zero; caspase activation, % (no concentration beside the values); 0.066% of 330,000 active; AID 2462;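 active = over half of replicate activation scores above 10%, or exactly half above 10 with the replicate mean above 10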;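 also: wells of about 30 µL received 50 nL stock; many hits fall short of the cut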
E coli growth – blocks Escherichia coli growth. OD600, 23 h; stronger effect = lower value. OD600 absorbance (no concentration beside the values). 0.21% of 330,000 active. AID 1053175;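 active = OD600 absorbance below the run mean of sample wells minus 3.6 SD, in any replicate, cut at about 0.56 in these data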;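 also: stock transfer was 300 nL into about 60 µL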
AF4-AF9 inh – blocks AF4 peptide binding to human AF9; P42568; 0.47% of 350,000 active; AID 651704; AlphaScreen, biotin-AF4 peptide binding to FLAG-AF9; inhibition, % at 10 µM;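 active = every replicate reaching a set inhibition limit, whatever the replicate mean, cut at about 25% in these data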;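 also: 0% = plate neutral control median and 100% = total signal loss; the record names both 10 and 1 µM as test concentration; the first replicate is given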
Target sequence (P42568 whole entry, looked up): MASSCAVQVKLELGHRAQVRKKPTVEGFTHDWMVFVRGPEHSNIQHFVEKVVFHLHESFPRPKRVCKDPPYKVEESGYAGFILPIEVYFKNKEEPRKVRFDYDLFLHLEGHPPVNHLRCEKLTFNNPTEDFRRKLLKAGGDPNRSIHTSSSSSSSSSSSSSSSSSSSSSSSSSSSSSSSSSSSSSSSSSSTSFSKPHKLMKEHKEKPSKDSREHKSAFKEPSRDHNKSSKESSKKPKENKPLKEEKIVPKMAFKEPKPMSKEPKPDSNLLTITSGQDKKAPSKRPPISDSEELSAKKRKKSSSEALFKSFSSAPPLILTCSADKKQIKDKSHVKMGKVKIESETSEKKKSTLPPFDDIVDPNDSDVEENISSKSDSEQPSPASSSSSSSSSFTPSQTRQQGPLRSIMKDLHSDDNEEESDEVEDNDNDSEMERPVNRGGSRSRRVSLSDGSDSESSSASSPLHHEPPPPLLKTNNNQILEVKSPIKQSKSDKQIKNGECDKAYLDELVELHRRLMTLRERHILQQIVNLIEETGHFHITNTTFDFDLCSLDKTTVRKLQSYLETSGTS
Beta cell apopt – beta cell apoptosis inhibition; INS-1E cytokine-induced death, ATP luminescence, 48 h; percent of positive-control rescue, neutral wells zero; protection from apoptosis, % (no concentration beside the values); 0.8% of 300,000 active; AID 435005;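 active = all replicates at 75% or more, or half of them and the mean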;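 also: 0% = cytokine-treated negative control wells and 100% = positive control rescue; higher means more ATP so stronger rescue from cytokine killing; wells of about 40 µL received 100 nL stock; the first replicate is given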
rRNA inh HTS OD600 – recorded beside rRNA inh HTS, whose call it bears; OD600 change, %; measured here: OD600 growth;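 optical density of the mix in the first replicate; 0 = DMSO median and -100 = no signal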
rRNA inh HTS RFP – recorded beside rRNA inh HTS, whose call it bears; RFP signal change, %; measured here: RFP humanized mutant strains;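 first replicate; 0 = DMSO median and -100 = no signal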
* = called active by the depositor; i = inactive; . = not tested or not shown. The list is partial; the hit share may differ from the screen's.

SMILES	T cruzi repl	FGF22 binding	rRNA inh HTS	rRNA inh HTS OD600	rRNA inh HTS RFP	UCH37 DUB inh	Bfl-1 A1 inh	E coli growth	AF4-AF9 inh	Beta cell apopt
Cc1cc(N2CCCCC2)nc2ccc(NC(=O)c3ccc(Br)o3)cc12	26	.	.	.	.	-2.7	0.2	0.66	.	7
COc1ccc(CC(=O)N(Cc2ccccc2)c2ccc(C)cc2)cc1OC	27	i	-38	-66	-11	2.2	0.1	0.7	1.9	-7
Cc1cc(C(F)F)n2ncc(C(=O)NCc3ccc(F)cc3)c2n1	30	i	5	7	6.2	0.4	0.0	0.67	-5.5	4
COC(=O)CCCC(=O)Nc1ccc(Br)cc1	0	i	20	13	-6.8	0.2	-0.3	0.69	-3.2	-5
CC(C)=C1SC(N2CCN(c3ccc(C)cc3)CC2)=NC1=O	12	.	.	.	.	0.4	-0.5	0.66	.	1
CC(C)OCC1CC(CC(=O)Nc2ccc([N+](=O)[O-])cc2)C(=O)O1 (centres undefined)	11	i	5	4	1.3	5.6	-0.4	0.65	1.2	-1
Cc1ccc(-c2nn3c(C)nnc3s2)cc1NC(=O)COc1ccc(Cl)cc1	13	i	-2	10	-3.6	5.5	-1.0	0.76	1.1	4
O=C(O)Cn1c(CCS(=O)(=O)c2ccc(Br)cc2)nc2ccccc21	-11	i	3	9	-1.6	.	0.2	.	-6.7	0
CCOC(=O)C1CCN(C(=O)Cc2c(F)cccc2Cl)CC1	-16	i	-1	-11	6.2	2.0	0.2	0.69	1.7	10
NC(=O)COC(=O)c1c2c(nc3ccccc13)CCCCC2	-10	i	-19	-24	-6.0	4.4	-0.1	0.7	0.2	-5
COc1ccc([N+](=O)[O-])cc1NC(=O)c1ccc(-n2nc(C)cc2C)cc1	-15	i	8	7	-0.1	2.6	0.6	0.67	0.1	.
COc1ccc(Oc2nc(-c3ccccn3)nc3ccccc23)cc1	11	i	5	2	-4.4	2.4	-3.4	0.67	-0.7	.
Cc1cccc(OCCCn2c(CO)nc3ccccc32)c1	13	i	-34	-36	-11	3.1	0.4	0.7	-1.4	2
Cc1ccc(S(=O)(=O)Nc2ccccc2C(=O)N2CCCCC2)cc1	1	i	6	7	2.0	0.9	1.4	0.7	-3.1	1
Cc1[nH]c(=O)c(C#N)cc1-c1ccccc1	-9	.	.	.	.	-19	0.2	0.67	.	4
Clc1cccc(NCc2nnc(SCc3ccccc3Cl)o2)c1	-9	.	.	.	.	-5.2	0.3	0.76	.	-4
CCCCN(C(=O)c1ccc(-c2ccc([N+](=O)[O-])cc2)o1)c1c(N)n(CC(C)C)c(=O)[nH]c1=O	.	i	10	15	-0.3	6.0	-0.5	0.68	6.2	1
O=C(CSc1nc2ccsc2c(=O)n1Cc1ccc(C(=O)O)cc1)NCc1ccco1	2	.	.	.	.	1.9	-1.9	0.69	.	-1
O=C(CCCn1cc([N+](=O)[O-])cn1)Nc1ccc2c(c1)OCO2	-1	i	2	5	-2.3	3.1	-0.6	0.71	1.7	2
O=C(O)c1cc(S(=O)(=O)N2CCCCC2)ccc1N1CCCCC1	.	i	7	16	-3.0	5.1	0.3	0.7	-33	-3
C=CCN(Cc1nc(-c2cc(OC)ccc2OC)oc1C)C1CCS(=O)(=O)C1 (centres undefined)	2	i	2	3	-4.2	-8.4	0.0	0.67	-1.9	0
O=C(Nc1cc(S(=O)(=O)N2CCCCC2)ccc1O)c1ccccc1NS(=O)(=O)c1ccc(F)c(F)c1	10	i	-56	-80	-26	-4.8	0.5	0.66	1.0	0
CCCCC(=O)Nc1ccc(S(=O)(=O)Nc2nccc(C)n2)cc1	-5	i	2	1	-16	3.5	0.2	0.68	-0.2	-2
NC(=O)c1cc([N+](=O)[O-])ccc1N1CCCCC1	6	.	.	.	.	10	0.9	0.71	.	2
COC(=O)c1sc2ccccc2c1NC(=O)c1ccc(S(=O)(=O)N2CCCCC2)cc1	6	.	.	.	.	1.2	-0.2	0.71	.	2
O=C(OCCN1C(=O)c2cccc3c(N4CCOCC4)ccc(c23)C1=O)c1ccc(Cl)cc1	-22	.	.	.	.	-19	0.1	0.76	.	4
CCOC(=O)C1=C(COC(=O)c2cccnc2Cl)NC(=O)NC1C (centres undefined)	-5	i	3	5	0.3	5.0	1.3	0.71	-3.1	-6
Cc1ccn2c(=O)c(C(=O)NC3CCCCC3C)c(O)nc2c1 (centres undefined)	15	i	10	13	-2.2	-65	0.6	0.59	-0.6	.
Clc1nnc2ccc(-c3ccccc3)nn12	-7	.	.	.	.	-25	-0.1	0.65	.	-2
CC1(C)OC(=O)C(=CNNc2c(Cl)cc(Cl)cc2Cl)C(=O)O1	7	i	7	10	1.3	2.2	0.3	0.73	-0.3	-4
Cc1nc(SCc2ccc(Br)cc2)[nH]c(=O)c1C	.	.	.	.	.	-0.2	0.6	0.76	.	-12
Cc1ccc2oc(-c3cccc(NC(=O)C4CCCO4)c3)nc2c1 (centres undefined)	5	.	.	.	.	-14	-2.4	0.62	.	0
C/C(=C(\C#N)C(=O)NC1CCCCC1)N(C)C	.	.	.	.	.	3.7	-1.1	0.72	.	1
C[C@H](NC(=O)c1nc[nH]c1C(=O)N[C@@H](CCCCN)C(=O)OC(C)(C)C)C(=O)OC(C)(C)C	-6	i	14	8	17	1.5	1.7	.	-9.0	-2
CCCN(CCC)C(=O)c1c(C)[nH]c(C(=O)OCC)c1C	3	.	9	1	0.7	1.2	0.6	0.7	-0.2	-4
Cc1ccc(NC(=O)[C@@H]2CCCN2C(=O)[C@@H]2Cc3ccccc3CN2)c(C)c1	-3	i	3	6	4.5	2.7	0.2	0.67	-3.6	-11
CCC(NC(=O)CCc1c(C)c2cc3c(-c4ccccc4)coc3cc2oc1=O)C(=O)O (centres undefined)	2	i	-10	-34	-6.1	-3.7	-0.2	0.7	-2.8	-6
O=C(CC1NC(=O)NC1=O)Nc1cccc2ccccc12 (centres undefined)	-6	.	.	.	.	0.9	0.4	0.71	.	-2
CCc1nc(SCc2ccccn2)c2c(=O)n(C)c(=O)n(C)c2n1	-11	i	2	7	1.0	2.7	.	0.65	-0.3	0
Cc1ccc2[nH]c(=O)c(CN(CCO)C(=O)NCc3ccccc3)cc2c1	-6	.	.	.	.	0.1	0.2	0.77	.	2

Reprinted at random: 3 compounds from above
SMILES	T cruzi repl	FGF22 binding	rRNA inh HTS	rRNA inh HTS OD600	rRNA inh HTS RFP	UCH37 DUB inh	Bfl-1 A1 inh	E coli growth	AF4-AF9 inh	Beta cell apopt
NC(=O)c1cc([N+](=O)[O-])ccc1N1CCCCC1	6	.	.	.	.	10	0.9	0.71	.	2
C/C(=C(\C#N)C(=O)NC1CCCCC1)N(C)C	.	.	.	.	.	3.7	-1.1	0.72	.	1
Clc1nnc2ccc(-c3ccccc3)nn12	-7	.	.	.	.	-25	-0.1	0.65	.	-2

New compounds follow:
SMILES	T cruzi repl	FGF22 binding	rRNA inh HTS	rRNA inh HTS OD600	rRNA inh HTS RFP	UCH37 DUB inh	Bfl-1 A1 inh	E coli growth	AF4-AF9 inh	Beta cell apopt
CCCCC(=O)NC(c1cccc([N+](=O)[O-])c1)c1c(OC(C)=O)ccc2ccccc12 (centres undefined)	37	.	.	.	.	4.8	0.0	0.77	.	23
CC(=O)c1c(C)oc2ccc(N(C(C)=O)S(=O)(=O)c3cccc([N+](=O)[O-])c3)cc12	-4	i	11	4	2.1	4.5	0.2	0.68	2.2	2
CCCCNC(=O)CN(Cc1ccco1)S(=O)(=O)c1ccc(C(C)=O)cc1	.	i	7	8	0.5	2.6	.	0.66	-2.2	.
CC1CCCCN1C(=O)COC(=O)C1CCN(S(=O)(=O)c2ccc(Cl)c(C(F)(F)F)c2)CC1 (centres undefined)	3	i	6	6	-0.9	-0.4	-0.5	0.71	4.6	-5
O=C(Nc1ccccc1F)N1CCC(NC(=O)C23CC4CC(CC(C4)C2)C3)CC1	21	i	2	2	-2.7	-1.2	0.4	0.66	-1.3	0
NS(=O)(=O)c1ccc(NC(=O)CSc2nc3ccccc3nc2N2CCOCC2)cc1	-8	i	-5	-23	-6.0	4.6	-0.2	0.78	-0.6	3
NS(=O)(=O)c1cccc(NC(=O)c2ccno2)c1	-7	i	15	24	0.2	-0.9	-0.8	0.65	-1.2	-6
COc1cc(/C=C/c2ccc3cccc(O)c3n2)ccc1O	22	i	-59	-79	-19	-14	-1.8	0.65	13	20
COC(=O)c1[nH]c2cccc(OC)c2c1NC(=O)CN1CC(C)OC(C)C1 (centres undefined)	-5	.	.	.	.	-44	1.8	0.64	.	3
Cc1ccc(C)c(N2CCN(C3CCCCC3NS(=O)(=O)c3ccccc3)CC2)c1 (centres undefined)	37	.	.	.	.	0.8	0.6	0.67	.	30
CN1CCN(S(=O)(=O)c2cc([N+](=O)[O-])ccc2N2CCCCCC2)CC1	6	.	.	.	.	6.3	0.2	0.69	.	-1
CC(=O)Nc1ccc(-c2cc(-c3ccc(NC(C)=O)cc3)nc(-c3ccc(NC(C)=O)cc3)n2)cc1	4	.	10	-1	4.2	-183	0.2	0.73	0.1	-3
Cc1ccc(C(C)(C)C)c(SCC(=O)Nc2nnc(C)s2)c1	-2	i	7	4	1.8	3.9	-0.4	0.7	-2.8	-4
CCOc1cccc(NC(=O)CSc2sc3c(O)cc(=O)[nH]c3c2C#N)c1	7	i	8	11	0.2	8.2	-0.6	0.66	-0.9	0
Cc1ccc(S(=O)(=O)N2CCCC2=O)c(C)c1N(C)S(C)(=O)=O	-2	i	18	14	1.2	3.5	1.4	0.66	0.7	-1
Cc1ccc(NC(=O)CSCC(=O)N=c2sccn2C)cc1	-2	i	5	13	0.5	-0.1	-0.3	0.68	1.1	-3
COc1ccc(S(=O)(=O)N2CCN(Cc3ccc4c(c3)OCO4)CC2)cc1	8	i	1	-10	5.7	.	-0.6	.	-1.9	-5
COc1ccc(S(=O)(=O)N2CCSCC2)cc1C(N)=O	3	i	18	10	2.2	-0.6	0.2	0.68	-1.3	-2
O=[N+]([O-])c1cc(S(=O)(=O)C(F)(F)F)ccc1N1CCN(c2ccccc2)CC1	42	i	-12	-30	-8.7	-0.6	-0.3	0.7	9.9	-6

A stretch taken from the entries so far, for reference:
SMILES	T cruzi repl	FGF22 binding	rRNA inh HTS	rRNA inh HTS OD600	rRNA inh HTS RFP	UCH37 DUB inh	Bfl-1 A1 inh	E coli growth	AF4-AF9 inh	Beta cell apopt
COc1ccc(S(=O)(=O)N2CCSCC2)cc1C(N)=O	3	i	18	10	2.2	-0.6	0.2	0.68	-1.3	-2
O=[N+]([O-])c1cc(S(=O)(=O)C(F)(F)F)ccc1N1CCN(c2ccccc2)CC1	42	i	-12	-30	-8.7	-0.6	-0.3	0.7	9.9	-6

Bioassay records from PubChem BioAssay.
